# Screens (PubChem)
# miR-21 FLuc – miR-21 reporter, rising signal; 340,000 tested, under 10 active; AID 2288; Potency, µM (series often up to 38.3 µM), for the others: at the top dose reporter change, positive = more light; HeLa miR-21 FLuc reporter, luciferase, 48 h; active = well fitted rising curve with a large enough effect; inconclusive = small, poorly fitted or top-dose-only effect; inactive = no such curve, though single readings can be large or run the other way;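 also: % of control where 0% means no effect; miR-21 action dims this reporter so a rising signal means less miR-21 action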
#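 HeLa cells stably expressing CMV-driven firefly luciferase with a downstream miR-21 binding sequence, endogenously expressing miR-21, were treated with titrations (up to about 40uM final) for 48 hours at 37 degree Celsius. Luciferase luminescence was read after lysis.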
# GLA inh pH 4.5 – alpha-galactosidase A (human) inhibition, pH 4.5; P06280; purified enzyme, 4-MU-alpha-Gal fluorescence, pH 4.5; activity change, negative = inhibition, % at 105 µM; 230,000 tested, under 10 active; AID 1467; inconclusive = small, poorly fitted or top-dose-only inhibition, or a rising curve; inactive = flat fitted curve, though single readings scatter; no compound was filed as active;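 also: 0% = full activity with enzyme and -100% = basal without enzyme; dose as in the result columns while the protocol names 77 µM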
# Rango dissoc inh – inhibitors of RanGTP-induced Rango-importin beta complex dissociation | O95149+P62826 | Biochemical FRET Rango-importin beta, RanGTP-induced dissociation | Potency, µM (highest dose often 46.1 µM), for the others: top-dose activity change, negative = inhibition | 0.071% of 340,000 active; active means falling FRET ratio curve, often poorly fitted, with flat reads before Ran was added; inconclusive means other falling curves, or compound fluorescence or quenching; inactive means flat or rising ratio curve;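 also: potency is read from the fitted curve at half-maximal effect; % of control where 0% means no effect; nearly all actives have a fitted effect of over 45% in size; -100% = wells without RanGTP and RCC1; the record marks most hits as doubtful in a second field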
#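 Rango (0.1 uM)–importin beta (0.25 uM) complex; RanGTP-RCC1 trigger; 45 min RT; CFP/YFP FRET read.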
# Rango complex inh – prevents formation of the Rango-importin beta complex; Q14974; Rango CFP/YFP FRET sensor + importin beta, 45 min; Potency, µM (series often up to 92.2 µM), for inactives: top-dose inhibition of complex formation; 0.031% of 340,000 active; AID 540263; active = rising FRET ratio curve, often small or poorly fitted; inconclusive = mostly compound fluorescence or quenching in the first reads; inactive = flat curves in all reads;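 also: potency is read from the fitted curve at half-maximal effect; 0% = DMSO wells and 100% = buffer wells lacking importin beta; nearly all actives have a fitted effect of over 15% in size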
# Target sequence (Q14974 whole entry, looked up): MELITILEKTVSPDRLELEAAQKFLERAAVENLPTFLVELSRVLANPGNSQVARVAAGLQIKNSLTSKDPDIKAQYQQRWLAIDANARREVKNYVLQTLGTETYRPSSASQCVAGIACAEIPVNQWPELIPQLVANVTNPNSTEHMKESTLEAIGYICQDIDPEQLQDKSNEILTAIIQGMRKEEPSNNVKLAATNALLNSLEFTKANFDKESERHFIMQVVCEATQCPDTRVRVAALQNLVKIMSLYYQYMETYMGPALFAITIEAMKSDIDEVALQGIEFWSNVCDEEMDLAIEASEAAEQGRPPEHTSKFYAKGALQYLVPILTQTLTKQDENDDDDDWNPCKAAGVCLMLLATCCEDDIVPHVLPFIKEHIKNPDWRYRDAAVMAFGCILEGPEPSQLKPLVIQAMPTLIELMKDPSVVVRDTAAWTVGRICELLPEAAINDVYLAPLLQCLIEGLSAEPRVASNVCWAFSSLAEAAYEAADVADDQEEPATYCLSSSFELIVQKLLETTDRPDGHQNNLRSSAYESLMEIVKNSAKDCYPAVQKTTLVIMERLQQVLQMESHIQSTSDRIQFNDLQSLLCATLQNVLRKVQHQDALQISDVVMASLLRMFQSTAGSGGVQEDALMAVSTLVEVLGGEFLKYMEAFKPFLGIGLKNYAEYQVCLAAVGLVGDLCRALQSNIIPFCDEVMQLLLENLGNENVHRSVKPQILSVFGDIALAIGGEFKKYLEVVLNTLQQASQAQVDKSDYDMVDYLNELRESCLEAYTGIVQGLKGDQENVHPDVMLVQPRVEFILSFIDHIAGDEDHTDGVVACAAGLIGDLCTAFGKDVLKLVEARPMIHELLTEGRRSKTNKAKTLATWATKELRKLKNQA
#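 Inhibition scored from the CFP 486 nm/YFP 530 nm FRET ratio 45 min after adding 0.125 microM importin beta to 50 nM Rango biosensor preincubated 5 min with compound (room temperature, PBS with DTT, Tween-20, BSA). No-importin wells as positive control.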
# An asterisk follows results filed as active; u = inconclusive; x = no result given.
# Start of the data: the first 2 compounds, ahead of the listing:
# Letter code – A = miR-21 FLuc; B = GLA inh pH 4.5; C = Rango dissoc inh; D = Rango complex inh
1) CC1CCCCN1C(=O)CSc1nnc(-c2ccco2)n1CC1CCCO1 (centres undefined)
  A: -5%; B: -1; C: 3%; D: -0.1%
2) CC(NC(=O)COc1ccccc1-c1ccccc1)c1ccccc1 (centres undefined)
  A: -6%; B: -2; C: 5%; D: -0.9%

# Results, from the start:
# Letter code – A = miR-21 FLuc; B = GLA inh pH 4.5; C = Rango dissoc inh; D = Rango complex inh
1) CC1CCCCN1C(=O)CSc1nnc(-c2ccco2)n1CC1CCCO1 (centres undefined)
  A: -5%; B: -1; C: 3%; D: -0.1%
2) CC(NC(=O)COc1ccccc1-c1ccccc1)c1ccccc1 (centres undefined)
  A: -6%; B: -2; C: 5%; D: -0.9%
3) O=C(NCCN1CCOCC1)c1cc(-c2ccccc2Cl)nc2ccccc12
  A: -6%; B: x; C: 4%; D: -1.8%
4) CCOc1ccccc1NC(=O)Nc1ccc(Cl)cc1
  A: -1%; B: 4; C: -10%; D: 0.7%
5) Cc1cc(C)nc(SCc2nnc(SCC(=O)Nc3ccccc3C)n2Cc2ccco2)n1
  A: -2%; B: -2; C: -5%; D: -4.2%
6) Nn1c(SCCOc2ccc(Cl)cc2)nnc1-c1cccnc1
  A: -1%; B: 2; C: 0%; D: 0.5%
7) Brc1cccc2sc(N3CCN(c4ccccc4)CC3)nc12
  A: -30%; B: -14; C: -32%; D: -5.7%
8) O=C1C=CC(=O)N1c1cccc2cccnc12
  A: x; B: x; C: 11%; D: -2.6%
9) CC(O)CNC(=O)c1ccc(-c2nn(C)c(=O)c3ccccc23)cc1 (centres undefined)
  A: -2%; B: 7; C: 2%; D: -2.0%
10) Cc1ccc(C)c(C2C(=O)c3ccccc3C2=O)c1
  A: 1%; B: x; C: 11%; D: 3.1%
11) S=C(NC1CCCCC1)NN1CCOCC1
  A: -1%; B: 3; C: 10%; D: -0.6%
12) CCOC(=O)CC1C(=O)NCCN1C(=O)Nc1ccc(Cl)cc1 (centres undefined)
  A: -3%; B: -3; C: -3%; D: -0.2%
13) CC(C)C[C@H]1CNC(=S)N1CC1CCCN1C[C@H](Cc1ccc(O)cc1)N1C[C@H](Cc2ccccc2)N(CC2CCCCCC2)C1=S (some centres undefined)
  A: x; B: x; C: -16%; D: u
14) O=C(Nc1ccccc1)N1CCc2c([nH]c3ccccc23)C1C(F)(F)F (centres undefined)
  A: 22%; B: -10; C: -8%; D: 0.0%
15) CCS(=O)(=O)c1nc(S(=O)(=O)c2ccc(Cl)cc2)c(N2CCC(C(N)=O)CC2)s1
  A: 6%; B: x; C: 14%; D: 4.1%
16) COc1cc2c(C)nc3c(c(C)nn3-c3ccccc3)c2cc1OC
  A: -2%; B: 5; C: 1%; D: 0.8%
17) O=C(C1=C(O)C(=O)N(CCCN2CCOCC2)C1c1ccccn1)c1cc2ccccc2o1 (centres undefined)
  A: -1%; B: 0; C: 4%; D: -1.6%
18) CCOc1cc(-c2noc(CCCC(N)=O)n2)cc(Br)c1OC
  A: -17%; B: 9; C: 15%; D: 1.7%
19) N#Cc1cccc(Nc2c3c(nc4ccccc24)CCC3)c1
  A: 2%; B: x; C: 3%; D: -0.1%
20) C[C@@H]1COC(=O)[C@@H](CC(=O)OC(C)(C)C)C/C=C\C[C@@H](CC(=O)NCCO)C(=O)N1
  A: x; B: x; C: 9%; D: -3.4%
21) O=C(CN1CCCC1)Nc1ccc2c(c1)CCC2
  A: -28%; B: 12; C: -14%; D: 1.6%
22) CC1CCCC(NC(=O)c2cc(-c3ccncc3)nc3ccccc23)C1C (centres undefined)
  A: x; B: x; C: -1%; D: 0.8%
23) O=C(NNC(=O)c1cccc2ccccc12)c1ccco1
  A: -6%; B: 2; C: -7%; D: -2.7%
24) Cc1cccc(C)c1NC(=O)CC(NCCc1ccccc1)C(=O)O (centres undefined)
  A: -2%; B: 3; C: -8%; D: 2.9%
25) Cc1ccccc1C(=O)NC1CCN(CC(=O)Nc2ccc3c(c2)OCO3)CC1
  A: -3%; B: 8; C: -22%; D: 0.8%
26) Cc1ccc(CNC(=O)COc2ccc(C)nc2[N+](=O)[O-])cc1
  A: -14%; B: 4; C: -13%; D: 1.3%
27) COc1cc(C2(c3ccc(O)c(OC)c3)C(=O)N(C)c3ccc(Br)cc32)ccc1O
  A: x; B: x; C: -13%; D: -0.5%
28) O=C(O)C1C2C=CC3(CN(Cc4ccccn4)C(=O)C13)O2 (centres undefined)
  A: 1%; B: -2; C: 2%; D: 0.8%
29) CSCCC(NC(N)=O)C(=O)NCc1cccc(Cl)c1 (centres undefined)
  A: 0%; B: -9; C: 30%; D: 0.3%
30) CCN(CC)S(=O)(=O)c1ccc(Cl)c(C(=O)Nc2ccc(Cl)cc2[N+](=O)[O-])c1
  A: 20%; B: -4; C: -7%; D: u
31) COc1ccc(OCCC(=O)NCc2ccccc2)cc1
  A: -11%; B: -2; C: 10%; D: 3.9%
32) COCCCNC(=S)NNC(=O)c1ccc(C(C)(C)C)cc1
  A: 1%; B: 2; C: -12%; D: 0.6%
33) O=C(NC(=S)Nc1ccc2oc(=O)ccc2c1)c1ccccc1F
  A: -2%; B: -3; C: -2%; D: -2.6%
34) COc1ccc(CNC(=O)C(=O)NCc2ccncc2)cc1
  A: 2%; B: 12; C: -24%; D: 1.3%
35) CCn1c2ccccc2c2cc(CN3CCN(S(=O)(=O)CC)CC3)ccc21
  A: -1%; B: 1; C: x; D: x
36) COCCNC(=O)c1c(N)n(CCCn2ccnc2)c2nc3ccccc3nc12
  A: 1%; B: u; C: u; D: u
37) O=C1CC(c2ccccc2)CN1S(=O)(=O)c1ccccc1 (centres undefined)
  A: -7%; B: 0; C: 10%; D: 1.8%
38) O=C(c1ccc(Cl)cc1)N(Cc1ccco1)C1CCS(=O)(=O)C1 (centres undefined)
  A: -4%; B: x; C: 1%; D: -0.4%
39) Cc1ccc(Cl)cc1NC(=S)N(Cc1cccnc1)Cc1ccccc1Cl
  A: 17%; B: -4; C: 2%; D: 3.3%
40) COc1ccc(-c2nc(CS(=O)CC(=O)NCCc3ccc(OC)c(OC)c3)c(C)o2)cc1 (centres undefined)
  A: -5%; B: x; C: -9%; D: 1.0%
41) O=C(Cn1ncc2c(=O)oc3ccccc3c21)NCCC1=CCCCC1
  A: -2%; B: -5; C: -17%; D: 2.6%
42) CCOc1ccc(OCC)c(S(=O)(=O)NC2CC(C)(C)NC(C)(C)C2)c1
  A: -5%; B: 2; C: 2%; D: 3.6%
43) Clc1ncccc1-c1nc2ccccc2s1
  A: -55%; B: 7; C: -16%; D: 0.6%
44) O=C(c1sc(N2CCOCC2)nc1-c1ccccc1)N1CCCCC1
  A: -10%; B: -17; C: 11%; D: -2.4%
45) CCC(C)C(=O)N1c2ccccc2C(=C2SC(C(=O)OC)=C(C(=O)OC)S2)C(=S)C1(C)C (centres undefined)
  A: 4%; B: -11; C: 2%; D: -4.6%

# One compound at a time (already shown).
# Profile of `O=C(c1sc(N2CCOCC2)nc1-c1ccccc1)N1CCCCC1` → miR-21 FLuc = -10%; GLA inh pH 4.5 = -17; Rango dissoc inh = 11%; Rango complex inh = -2.4%
# Profile of `COc1ccc(CNC(=O)C(=O)NCc2ccncc2)cc1` → miR-21 FLuc = 2%; GLA inh pH 4.5 = 12; Rango dissoc inh = -24%; Rango complex inh = 1.3%
# Profile of `COc1ccc(OCCC(=O)NCc2ccccc2)cc1` → miR-21 FLuc = -11%; GLA inh pH 4.5 = -2; Rango dissoc inh = 10%; Rango complex inh = 3.9%

# Remaining list, next part.
# Letter code – A = miR-21 FLuc; B = GLA inh pH 4.5; C = Rango dissoc inh; D = Rango complex inh
46) CCOC(=O)Cc1csc(SCC(=O)/C(C#N)=C(\C)N)n1
  A: -5%; B: 4; C: 8%; D: -3.0%
47) CCOC(=O)c1ccccc1NC(=O)/C=C/c1cc(OC)c(OC)c(OC)c1
  A: 1%; B: 8; C: 16%; D: 4.9%
48) Cc1ccc(OC(=O)CCC(=O)Nc2ccc(C(N)=O)cc2)cc1
  A: x; B: x; C: -5%; D: 2.3%
49) CN(C(=O)c1ccncc1)C1CCCCC1
  A: -1%; B: x; C: -3%; D: -3.4%
50) O=C1c2ccccc2C(=O)N1c1ccc(Br)c2cccnc12
  A: -17%; B: -3; C: 10%; D: -2.4%
51) S=C(NCCc1ccccc1)Nc1ccc(Nc2ccccc2)cc1
  A: 28%; B: -18; C: 5%; D: 2.7%
52) CCOc1ncccc1C(=O)Nc1cc(C(F)(F)F)ccc1N1CCOCC1
  A: x; B: x; C: -7%; D: 2.3%
53) COc1ccc(CNC(=O)CCCn2ncn3c(cc4occc43)c2=O)cc1
  A: -5%; B: x; C: -6%; D: -2.3%
54) O=C(N/C(=C/c1cccc([N+](=O)[O-])c1)C(=O)N1CCOCC1)c1ccccc1Br
  A: -4%; B: x; C: 5%; D: -2.6%
55) COc1ccc(/C=N/NC(=O)c2ccccc2O)cc1Cn1cc([N+](=O)[O-])cn1
  A: -5%; B: 2; C: -3%; D: 0.3%
56) CCCN(CCC)C(=O)c1ccc2c(c1)OCO2
  A: -11%; B: -5; C: -12%; D: -2.6%
57) COc1cccc2sc(N(CCN(C)C)C(=O)/C=C/c3cccs3)nc12
  A: 19%; B: -16; C: 10%; D: -3.4%
58) CCOC(=O)C1CCCN(Cc2nc(N)nc(Nc3ccccc3OC)n2)C1 (centres undefined)
  A: -6%; B: -5; C: 3%; D: -2.5%
59) CN1CCN(C(=O)c2ccc3c(c2)S(=O)(=O)c2ccccc2C3=O)CC1
  A: -9%; B: 1; C: -4%; D: 0.3%
60) COc1ccc(N(CC(=O)NCc2ccc(Cl)cc2)S(=O)(=O)c2c(C)n[nH]c2C)cc1
  A: 3%; B: x; C: 5%; D: -0.3%
61) Clc1ccc(OCc2nc(-c3ccncc3)no2)cc1
  A: -22%; B: 7; C: 1%; D: -2.3%
62) CC(C)(C)c1ccc(S(=O)(=O)NCC(=O)N2CCN(Cc3ccccc3)CC2)cc1
  A: 3%; B: x; C: 4%; D: 1.5%
63) COc1cccc(NC(=S)NC(=O)/C=C/c2ccco2)c1
  A: -14%; B: x; C: -16%; D: -1.0%
64) O=C(c1cc(Br)c(Br)s1)N1CCN(C/C=C/c2ccccc2)CC1
  A: 4%; B: -12; C: -11%; D: 0.0%
65) O=[N+]([O-])c1ccccc1S(=O)(=O)Nc1ccc(-c2ccc(N3CCOCC3)nn2)cc1
  A: x; B: x; C: 12%; D: u
66) CCC(C)NC(=O)CSc1nnc(-c2cc(-c3cccs3)nc3ccccc23)o1 (centres undefined)
  A: 6%; B: 7; C: -11%; D: 1.0%
67) COC(=O)c1cc(C#N)c(NCc2ccccc2)nc1C
  A: 0%; B: 6; C: -3%; D: 0.8%
68) COc1cccc2c1OCC/C2=N\NC(=O)COc1ccccc1C
  A: -28%; B: 2; C: 11%; D: -0.2%
69) Cc1ccc(SCC(=O)Nc2nncs2)cc1
  A: x; B: x; C: 8%; D: -1.7%
70) CCOc1ccc(-n2c(SC(C)C(=O)OC)nc3c(c2=O)SCC3)cc1 (centres undefined)
  A: x; B: x; C: -2%; D: 0.0%
71) O=C(NCc1ccccn1)C(=O)NCC(c1ccco1)N1CCN(c2ccc(F)cc2)CC1 (centres undefined)
  A: 14%; B: 4; C: -4%; D: -0.2%
72) C=CCn1c(SCc2csc(-c3ccc(Cl)cc3)n2)nnc1-c1ccccc1OC
  A: -11%; B: -24; C: -7%; D: 0.3%
73) Cc1cc(C)c2nc(N3CCC(C(=O)NCCCN4CCCC4=O)CC3)sc2c1
  A: -3%; B: x; C: -13%; D: 5.7%
74) COc1cc(CNCc2ccc(C(=O)O)cc2)ccc1OCc1ccc(F)cc1
  A: -12%; B: x; C: 2%; D: 1.9%

# A portion of the library (hit frequency here may not be typical).
